Screening results as filed in PubChem.
miR-21 reporter: miR-21 reporter, rising signal; HeLa miR-21 FLuc reporter, luciferase, 48 h; Potency, µM (top dose mostly 38.3 µM), without a hit: at the top dose reporter change, positive = more light; 340,000 tested, under 10 active; active = well fitted rising curve with a large enough effect; inconclusive = small, poorly fitted or top-dose-only effect; inactive = no such curve, though single readings can be large or run the other way;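 also: % of control where 0% means no effect; miR-21 action dims this reporter so a rising signal means less miR-21 action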
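Luminescence from a firefly luciferase reporter carrying a miR-21 binding site downstream, stably expressed under a CMV promoter in HeLa cells that make miR-21 endogenously, reports miRNA modulation after 48 h compound exposure up to approximately 40uM final.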
Rango-impB inh: inhibitors of Rango-importin beta complex formation | actives 0.031% (n = 340,000) | Rango CFP/YFP FRET sensor + importin beta, 45 min | Potency, µM (series often up to 92.2 µM), for inactives: top-dose inhibition of complex formation | Q14974; active = rising FRET ratio curve, often small or poorly fitted; inconclusive = mostly compound fluorescence or quenching in the first reads; inactive = flat curves in all reads;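 also: potency is read from the fitted curve at half-maximal effect; 0% = DMSO wells and 100% = buffer wells lacking importin beta; nearly all actives have a fitted effect of over 15% in size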
Target sequence (Q14974 whole entry, looked up): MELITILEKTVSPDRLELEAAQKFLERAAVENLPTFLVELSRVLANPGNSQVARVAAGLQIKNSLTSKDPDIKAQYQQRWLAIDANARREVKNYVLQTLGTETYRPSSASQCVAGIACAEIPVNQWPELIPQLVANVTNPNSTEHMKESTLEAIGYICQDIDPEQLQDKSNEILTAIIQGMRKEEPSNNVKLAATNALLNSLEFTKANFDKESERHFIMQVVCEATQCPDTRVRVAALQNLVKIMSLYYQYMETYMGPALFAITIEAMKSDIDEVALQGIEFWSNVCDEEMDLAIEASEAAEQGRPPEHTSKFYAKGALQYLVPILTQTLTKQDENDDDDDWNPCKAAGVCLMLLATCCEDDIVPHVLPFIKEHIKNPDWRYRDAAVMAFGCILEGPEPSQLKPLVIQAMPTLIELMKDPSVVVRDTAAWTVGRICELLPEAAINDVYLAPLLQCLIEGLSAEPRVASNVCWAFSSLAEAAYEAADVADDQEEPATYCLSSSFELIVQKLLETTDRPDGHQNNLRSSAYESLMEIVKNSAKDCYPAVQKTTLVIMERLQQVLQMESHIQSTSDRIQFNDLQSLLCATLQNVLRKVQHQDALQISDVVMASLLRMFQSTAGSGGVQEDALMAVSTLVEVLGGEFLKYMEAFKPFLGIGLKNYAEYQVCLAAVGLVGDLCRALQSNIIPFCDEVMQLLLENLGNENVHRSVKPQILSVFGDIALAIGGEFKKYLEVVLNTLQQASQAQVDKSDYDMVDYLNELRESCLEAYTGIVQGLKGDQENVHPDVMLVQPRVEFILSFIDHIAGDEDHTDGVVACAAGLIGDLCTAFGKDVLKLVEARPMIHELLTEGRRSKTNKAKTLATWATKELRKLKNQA
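Inhibition scored from the CFP 486 nm/YFP 530 nm FRET ratio 45 min after adding 0.125 microM importin beta to 50 nM Rango biosensor preincubated 5 min with compound (room temperature, PBS with DTT, Tween-20, BSA). No-importin wells as positive control.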
Rango release inh: inhibitors of RanGTP-induced Rango-importin beta complex dissociation; O95149+P62826; Biochemical FRET Rango-importin beta, RanGTP-induced dissociation; Potency, µM (series often up to 46.1 µM), for inactives: at the top dose activity change, negative = inhibition; actives 0.071% (n = 340,000); AID 540253; active means falling FRET ratio curve, often poorly fitted, with flat reads before Ran was added; inconclusive means other falling curves, or compound fluorescence or quenching; inactive means flat or rising ratio curve;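 also: potency is read from the fitted curve at half-maximal effect; % of control where 0% means no effect; nearly all actives have a fitted effect of over 45% in size; -100% = wells without RanGTP and RCC1; the record marks most hits as doubtful in a second field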
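Two FRET readings bracket the reaction: one 5 min after compound meets Rango–importin beta, another 45 min after RanGTP-RCC1 (0.6 uM Ran, 0.2 uM RCC1, 2 mM GTP) is added. Only the second defines inhibition.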
GLA inh pH 4.5: alpha-galactosidase A (human) inhibition, pH 4.5 | P06280 | purified enzyme, 4-MU-alpha-Gal fluorescence, pH 4.5 | activity change, negative = inhibition, % at 105 µM | 230,000 tested, under 10 active | AID 1467; inconclusive = small, poorly fitted or top-dose-only inhibition, or a rising curve; inactive = flat fitted curve, though single readings scatter; no compound was filed as active;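 also: 0% = full activity with enzyme and -100% = basal without enzyme; dose as in the result columns while the protocol names 77 µM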
* marks the source's active call; other numbers are inactive results; ? = inconclusive; . = no result given; & = joins results of further samples.

SMILES | miR-21 reporter | Rango-impB inh | Rango release inh | GLA inh pH 4.5
CCN(CC)S(=O)(=O)c1ccc(Cc2ncc(C(F)(F)F)cc2Cl)s1 | 2.1% | -0.5% | -1.2% | -12.4
CCCC(=O)Nc1nnc(SCC(=O)NCc2ccco2)s1 | -2.4% | 0.5% | -10.8% | 2.9
COc1ccc(NC(=O)CO/N=C(\C)c2cccs2)cc1 | -5.0% | -1.0% | 0.1% | 8.1
C=CCN1C(=O)C2C(C(=O)NC3CCCCC3)C3C=CC2(O3)C1C(=O)NC1CCCC1 (stereo unspecified) | -3.8% | -2.1% | 1.1% | -1.8
CC(C)OCCCNC(=O)CCc1nc(-c2ccccc2)no1 | -9.4% | 0.7% | 2.0% | 1.3
Cc1ccc2cc(C(c3nnnn3C(C)(C)C)N3CCCCCC3)c(=O)[nH]c2c1 (stereo unspecified) | -5.7% | 3.5% | 0.5% | -21.6
CCC(/C=N/NC(=O)C(N)=O)CC | -5.1% | 1.8% | 29.9% | 4.2
C#CCOc1ccc(/C=C2/C(=O)ON=C2C)cc1Br | 1.7% | -2.9% | 10.6% | .
Cc1cccc(C)c1NC(=O)CN(C)C(=O)CCC(=O)c1ccccc1 | . | -0.5% | 5.2% | .
O=c1[nH]c(N/N=C/c2ccc(O)cc2)nc2ccccc12 | -45.2% | ? | ? | 17.6
CC(C)CCN1CCN(Cc2ccon2)CC1CCO (stereo unspecified) | -1.5% | 0.1% | 5.1% | 4.5
C=CCNC(=O)c1ccc2c(c1)N(CC)C(=O)c1ccccc1S2 | -4.1% | -2.0% | -4.7% | .
COc1ccc(N(C(=O)c2ccn[nH]2)C(C(=O)NC2CCCC2)c2ccc(F)cc2)cc1 (stereo unspecified) | 2.8% | 0.8% | -0.3% | .
CN(C(=O)CCCN1CCCC1=O)C1CCCN(Cc2ccccc2F)C1 (stereo unspecified) | 1.1% | -0.1% | -4.2% | .
O=C(O)C1(Nc2ccc(Br)cc2)CCCC1 | . | -0.5% | -0.6% | .
Cc1cc(C)n(-c2cccc(Cl)c2)c(=O)c1C#N | -2.8% | -0.6% | -1.6% | 3.6
CCC1S/C(=N/S(=O)(=O)c2ccc(N)cc2)NC1=O (stereo unspecified) | . | -3.2% | -0.7% | .
Cc1cc(C)nc(SCc2nnc(SCC(=O)Nc3nccs3)n2C)n1 | 2.4% | 1.3% | 5.8% | -3.0
Cc1ccc(C(=O)N2CCC(n3nccc3NC(=O)Nc3cccc(F)c3)CC2)cn1 | -0.1% | -1.3% | -18.3% | .
O=C1Nc2ccc(Br)cc2C12OCCO2 | . | 0.6% | 11.4% | .
O=C(Nc1cccc2ccccc12)NC1CCS(=O)(=O)C1 (stereo unspecified) | -0.4% | -0.6% | 5.2% | 12.4
CC(C)CCN1CCN(C/C=C/c2ccco2)CC1CCO (stereo unspecified) | 1.1% | 0.4% | 6.9% | -1.2
CC(C)N(Cc1ccccc1)C(=O)C1CCN(c2ncnc3c2nc2n3CCCCC2)CC1 | 13.4% | -3.6% | 8.0% | .
COCCn1cc(C(=O)NCCCOC(C)C)c2c3ccccc3n(C)c2c1=O | 2.8%&-0.4% | 3.2% | 21.0% | .
Cc1ccc(C)c(CS(=O)(=O)c2cn(CC(=O)N3CCCCC3)c3ccccc23)c1 | -0.9% | -0.8% | -4.2% | 7.7
COC(=O)/C=C1\C(=O)N(c2nc3ccccc3s2)C(=S)N1c1ccc(F)cc1 | -3.4% | -5.3% | 18.6% | 2.3
COc1ccc(CCCNC(=O)C2CCC(=O)N(CC3CCCCC3)C2)cc1 (stereo unspecified) | 0.1% | ? | 10.5% | .
Cc1cc(C)cc(NC(=O)Cn2nnc(C(=O)NCc3ccc4c(c3)OCO4)c2N)c1 | -14.7% | -4.2% | -5.5% | .
COC(=O)c1[nH]c2ccccc2c1NC(=O)CNC1CCCCC1 | 8.8% | -2.1% | -1.6% | 0.1
Cc1cc(C)cc(NC(=O)CSc2ccc(-c3cccs3)nn2)c1 | 27.8%&1.8% | 2.2% | -10.3% | 2.1
Cc1cc(C)c2nc(SCC(=O)N(C)C3CCS(=O)(=O)C3)cc(C)c2c1 (stereo unspecified) | -1.0% | -1.1% | 0.3% | -7.1
CC(Sc1nnc(N)s1)C(=O)c1c(N)n(C)c(=O)n(C)c1=O (stereo unspecified) | . | -3.0% | 11.8% | .
Cc1cccc(NS(=O)(=O)c2cc3c4c(c2)CCC(=O)N4CCC3)c1 | . | -4.9% | -5.8% | .
Cc1ccc(C(C(=O)NC2CCCCC2)N2CCN(C(=O)c3ccco3)CC2)cc1 (stereo unspecified) | -8.4% | 0.2% | 1.8% | 0.1
CCN(CC)CCCN1C(=O)CSC1c1ccc([N+](=O)[O-])cc1 (stereo unspecified) | -2.0% | 1.8% | 11.2% | 4.8
Cc1ccccc1NC(=O)NC1(C(=O)NCC2CCCO2)CCCCC1 (stereo unspecified) | -7.7% | -0.3% | -4.3% | .
OCCNc1nc2ccccc2n1CC(O)c1ccccc1 (stereo unspecified) | 0.0% | -5.1% | 20.7% | -0.9
Cc1ccc(C(=O)NNC(=O)c2ccncc2)cc1C | -3.2% | 1.3% | -0.5% | .
O=S(=O)(Nc1nc(SCc2ccc(Cl)cc2)n[nH]1)c1ccc(F)cc1 | -13.8% | 7.4% | 7.3% | -3.9
O=C(Oc1ccc(Cl)cc1)N1CCOCC1 | 0.1% | 1.5% | 0.3% | .

Ordered by count of non-hydrogen atoms (rising): three of the compounds above.
SMILES | miR-21 reporter | Rango-impB inh | Rango release inh | GLA inh pH 4.5
Cc1ccc(C(=O)NNC(=O)c2ccncc2)cc1C | -3.2% | 1.3% | -0.5% | .
OCCNc1nc2ccccc2n1CC(O)c1ccccc1 (stereo unspecified) | 0.0% | -5.1% | 20.7% | -0.9
Cc1ccc(C(C(=O)NC2CCCCC2)N2CCN(C(=O)c3ccco3)CC2)cc1 (stereo unspecified) | -8.4% | 0.2% | 1.8% | 0.1

The listing continues.
SMILES | miR-21 reporter | Rango-impB inh | Rango release inh | GLA inh pH 4.5
COc1ccccc1NS(=O)(=O)c1ccc(-c2cnc(C3CC3)o2)cc1 | 21.7% | 5.5% | 29.6% | .
CCOC(=O)C(C)/C(C)=N/NC(N)=S (stereo unspecified) | -0.6% | -0.1% | 1.3% | 2.9
N#C/C(=C(/O)CSc1ccccc1C(=O)O)c1nc2ccccc2s1 | -3.1% | 2.9% | 11.9% | -10.8
CCN(CC)S(=O)(=O)c1ccc(N2CCCC2)c(NC(=O)c2ccccc2OC)c1 | 5.6% | -0.8% | 0.9% | -11.3
COc1ccc(CCNC(=O)CSc2nc3ncccc3[nH]2)c(OC)c1 | -9.7% | -1.6% | -3.4% | .
COc1ccc(NC(=O)C(Sc2ccccc2)c2ccccc2)c(OC)c1 (stereo unspecified) | -4.3% | 7.3% | 13.8% | -11.6
CN(C)c1ccc(C2N(c3ccc(F)cc3)C(=O)C3CCCN32)cc1 (stereo unspecified) | 0.0% | 1.0% | 12.0% | -11.4
O=C(Cn1[nH]c(=O)c2ccccc2c1=O)Nc1cccnc1 | 1.5% | -6.7% | -0.6% | -0.6
CC(=O)Nc1nc(-c2ccccc2)nc(-c2ccccc2OC(C)=O)n1 | 14.5% | 7.5% | -3.0% | -19.9
O=C(NCc1ccccc1CN1CCCC1)c1ccc(Cl)c(S(=O)(=O)N2CCCC2)c1 | . | 2.4% | -16.7% | .
CCOc1ccccc1-c1nnc(SCC(=O)NC2CC3CCC2C3)n1CC (stereo unspecified) | 2.0% | 1.9% | 3.4% | -1.0
O=C(CCC(=O)c1ccc(Oc2ccccc2)cc1)Nc1cccc(Cl)c1Cl | -4.8% | 1.5% | 6.1% | -9.4
COc1ccc(/C=C/C(=O)NC2CCN(Cc3ccccc3)CC2)cc1OC | -2.2% | 0.8% | 6.7% | .
O=C(CNC(=O)c1ccccc1F)NCCOc1ccccc1Cl | -12.7% | -0.6% | 14.7% | 4.6
O=C(COC(=O)CNC(=O)c1ccc(Cl)c([N+](=O)[O-])c1)NC(=O)c1ccccc1 | -0.1% | 2.4% | 30.2% | .
CC(=O)N1N=C(c2ccncc2)OC12CCCCC2 | -9.3% | 0.2% | 1.8% | -24.0
O=C(Nc1ccc(NC(=O)c2ccc(Cl)c(S(=O)(=O)N3CCOCC3)c2)cc1)c1ccccc1 | 6.1% | -2.6% | -10.7% | .
Cc1cc(C)n2nc(C(F)(F)F)c(-c3ccccc3)c2n1 | 5.0% | -0.8% | 9.7% | -2.0
Cc1cc2oc(=O)cc(C)c2c(=O)o1 | -5.6% | 0.1% | -5.2% | -5.6
COc1ccc(N2CCN(C(=O)C3CCCN3S(=O)(=O)c3cccc4nsnc34)CC2)cc1 (stereo unspecified) | -2.4% | 0.6% | 0.2% | .
CCOc1ccc(C(CC(=O)O)n2cnnn2)cc1 (stereo unspecified) | 0.8% | -0.4% | 13.2% | 7.1
Cc1cc(C)cc(NC(=O)c2nccnc2C(=O)O)c1 | 0.3% | -2.6% | -0.3% | -3.4
O=[N+]([O-])c1ccc(N2CCN(S(=O)(=O)c3ccc4ccccc4c3)CC2)cc1NCC1CCCO1 (stereo unspecified) | -8.5% | -0.2% | -7.2% | -20.3
CCOC(=O)C1=C(C)Nc2ccccc2N=C1NC(=O)c1ccc(Cl)c(S(=O)(=O)N2CCCC2)c1 | -0.3% | ? | 4.9% | -8.2
CCCN(C(=O)c1ccc(N2CCCC2=O)cc1)c1c(N)n(Cc2ccccc2)c(=O)[nH]c1=O | . | -4.7% | -12.8% | .
Cc1cc(SCNC(=O)c2ccccc2)nc(C(C)C)n1 | -1.6% | -0.3% | -11.1% | 11.7
CCN(CC)S(=O)(=O)c1ccc(NC(=O)COC(=O)c2ccc(Br)o2)cc1 | 0.1% | 1.7% | 0.1% | -0.9
N#Cc1cc2c(nc1SC1CCCCC1O)CCCC2 (stereo unspecified) | -9.4% | 2.5% | -8.6% | 4.5
c1ccc(-c2nc3nc4ccccc4nc3n2Cc2ccco2)cc1 | -25.9% | ? | -1.3% | 3.2
CCOC(=O)c1c(N)sc(C(O)(C(F)(F)F)C(F)(F)F)c1-c1ccc(OC)cc1OC | 4.6% | -0.9% | 2.1% | -3.4
CCOc1ccc2nc(NC(=O)CSCC(=O)Nc3cc(C)on3)sc2c1 | . | -1.8% | 0.3% | .
CCN(CC)S(=O)(=O)c1ccc(C(=O)NCc2n[nH]c(=S)n2Cc2ccccc2)cc1 | -7.4% | -1.4% | -4.2% | -13.4
CSCC[C@H](NC(=O)[C@H]1N2C(=O)c3ccccc3C2SC1(C)C)C(=O)NCc1ccncc1 (stereo partly specified) | 2.6% | 2.5% | 8.1% | .
COc1cccc(C(=O)NCCS(=O)(=O)NCc2ccc(Cl)cc2)c1 | . | 3.3% | 13.5% | .
CCOc1ccc(C(=O)Cc2ccccc2)cc1 | . | -4.1% | 7.1% | .
COCCNCCCOc1ccc(C)cc1Br | 3.8% | 0.8% | 7.2% | -5.7
CCOC(=O)c1cc(CC)sc1/N=C/C1=C(O)CCCC1=O | 1.6% | ? | ? | -7.4
CCOc1ccc(N(CC(=O)NCCSCc2ccc(Cl)cc2)S(C)(=O)=O)cc1 | 11.4% | 1.3% | 10.7% | .
O=C(c1cccc(C(F)(F)F)c1)C1CCCN(C(=O)CCCN2CCCC2=O)C1 (stereo unspecified) | 3.1% | 1.8% | 0.2% | -10.6
O=C(CSc1ccccn1)N1CCN(c2ccccc2)CC1 | -38.6% | ? | -11.2% | -5.8
O=C(CC1CCCCC1)N1CCN(c2ccccn2)CC1 | -21.7% | 1.3% | -2.2% | -0.9
CCCN(CCC)C(=O)Nc1ccc(F)cc1F | 1.0% | -3.9% | -5.4% | -0.8
O=S(=O)(c1ccccc1)c1nc(-c2ccccc2F)oc1NCc1cccnc1 | -1.0% | 4.0% | -8.0% | 7.0
COc1ccc(-c2cc(-c3nnc(COC(=O)C4CC4C)o3)c3ccccc3n2)cc1OC (stereo unspecified) | -4.3% | ? | ? | -12.9
Cc1cc(/C=N/NC(=O)COc2cccc3cccnc23)c(C)n1-c1ccc(O)cc1 | -20.8% | 3.9% | 0.7% | -0.5
Cc1ccc(S(=O)(=O)N2CCN(c3nc(CN4CCCC4)nc4sc(C)c(C)c34)CC2)cc1 | . | -3.9% | 11.8% | .
Cc1csc(SCC(=O)Nc2ccc(C)c(F)c2)n1 | . | 4.7% | -10.0% | .

These rows are one share of the data (hit frequency here may not be typical).
